Assay outcomes deposited in PubChem by National Center for Advancing Translational Sciences (NCATS).
HPGD inh – qHTS Assay for Inhibitors of HPGD (15-Hydroxyprostaglandin Dehydrogenase); 15-hydroxyprostaglandin dehydrogenase [NAD(+)] (Homo sapiens), P15428; purified HPGD, NADH fluorescence kinetic, PGE2 substrate; Potency, µM, for the others: at the highest dose activity change, negative = inhibition, most hits filed as inhibitors; actives 4.3% (n = 150,000); active = well fitted inhibition curve with a large enough effect (not every such curve was filed as active); inconclusive = small, poorly fitted or top-dose-only effect, or another doubt; inactive = no such curve, though single readings can be large or run the other way;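 further: top concentration of the series not given in the record; plate controls included wells without enzyme; inactives centre near -10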
Target sequence (P15428 whole entry, looked up): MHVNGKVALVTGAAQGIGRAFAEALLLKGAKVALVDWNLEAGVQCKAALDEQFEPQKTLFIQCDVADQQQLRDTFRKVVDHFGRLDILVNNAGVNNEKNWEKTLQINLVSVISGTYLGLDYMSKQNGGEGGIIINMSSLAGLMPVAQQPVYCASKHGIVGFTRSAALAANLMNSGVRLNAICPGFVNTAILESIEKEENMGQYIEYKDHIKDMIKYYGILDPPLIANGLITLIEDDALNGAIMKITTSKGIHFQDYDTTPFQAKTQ
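20 nM HPGD preincubated 15 min at room temperature with compound in 50 mM Tris-HCl pH 8, 0.01% Tween 20. Started with 1 mM NAD+ and 30 uM prostaglandin E2; NADH fluorescence (360/450 nm) read 5 times over 30-s intervals, last minus first.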
The depositor's hits bear a star; ? = inconclusive; & = joins results of further samples. On the % scale 0 is the no-effect control and ±100 the full control effect; potency means the concentration at half of the fitted maximal effect. The list is partial; the hit share may differ from the screen's.

HPGD inh	SMILES
-9%	CCOC(=O)c1ccc(NC(=O)C2C3C=CC(C3)C2C(=O)O)cc1 (stereo unspecified)
16µM*	O=C(CSc1nc2ccccc2c(=O)[nH]1)c1ccc(O)c(O)c1
-18%	CC1=C(C(=O)Nc2ccccc2)C(c2ccccn2)n2ncnc2N1 (stereo unspecified)
-7%	CNC(=O)COC(=O)c1ccc([N+](=O)[O-])cc1Cl
-11%	Cc1ccc(C)c(N2CCN(C(=O)COc3cc(=O)n(C)c4ccccc34)CC2)c1
-6%	O=C(CS(=O)(=O)Cc1ccccc1)N1CCc2ccccc2C1
-3%	CC(=O)NC1C(=O)N(CCc2ccccc2)c2ccccc21 (stereo unspecified)
-6%&-21%	CC(=O)N[C@@H](CS)C(=O)O
-29%	COCCOC(=O)c1c(C)oc2ccc(OCc3cc(C(=O)OC)oc3C)cc12
-2%	CCOC(=O)CN1C(=O)CN(c2ccc(C)c(C)c2)C1=O
-27%	O=C(CNc1ccc(Oc2ccccc2)cc1)N1CCOCC1
0%	Cc1nc2c(-c3ccc(F)cc3)c(C)nn2c(C)c1CCC(=O)NCCN1CCOCC1
-18%	O=C(Nc1cccc2ccccc12)c1ccccc1
-20%	S=c1nc[nH]c2c1sc1nc(-c3ccccc3)c3c(c12)CCCC3
?	c1ccc(-c2cc(N3CCCCCC3)n[nH]2)cc1
-21%	Cc1c2c(nc3c(C)cccc13)OC(C)C2 (stereo unspecified)
-10%	COC(=O)CSC1=C(C#N)C(=O)NC2(CCCCC2)S1
-6%	CCOc1ccc(NC(=O)c2csc3c2CCCC3)cc1
-11%	c1ccc2c(c1)nc(-c1ccncc1)n1nnnc21
?	COc1cc(-c2nc3ccccn3c2NCC2CCCO2)ccc1O (stereo unspecified)
-6%&-4%	CC(C)(S)[C@H](N)C(=O)O
-15%	Cn1ccc2cc(NC(=O)Nc3cccnc3)ccc21
13µM*	CN1CCN(C(=O)c2ccc(N3CCCC3=O)cc2)CC1
-16%	COc1ccc(Oc2ncc3ncc(=O)n(Cc4cccs4)c3n2)cc1
-7%	CCOC(=O)NC1(C(F)(F)F)NC(=O)N(C2CCCCC2)C1=O (stereo unspecified)
-25%	COC(=O)c1cc(C(=O)OC)cc(-n2c(C)cc(C(=O)CC#N)c2C)c1
-12%	COc1cc(/C=N/NC(=O)CCn2cnc(-c3ccccc3)c2-c2ccccc2)ccc1O
-13%	O=C1NCCN1C(=O)C12CC3CC(CC(C3)C1)C2
-20%	COc1cccc([C@@H]2Oc3ccc(OC)cc3C(=O)[C@H]2OC(=O)NCCc2ccc(OC)c(OC)c2)c1
-7%	COC(=O)Nc1ncc(CN2CCCCC2)s1
-17%	O=C(c1ccc2snnc2c1)N1CCN(c2ccccc2)CC1
-16%	O=c1cc(-c2ccccc2)nc2nc(SCc3ccccc3)[nH]n12

Structures above that have a halogen, in the order listed:
HPGD inh	SMILES
-7%	CNC(=O)COC(=O)c1ccc([N+](=O)[O-])cc1Cl
0%	Cc1nc2c(-c3ccc(F)cc3)c(C)nn2c(C)c1CCC(=O)NCCN1CCOCC1
-7%	CCOC(=O)NC1(C(F)(F)F)NC(=O)N(C2CCCCC2)C1=O (stereo unspecified)

(listing goes on)
HPGD inh	SMILES
-17%	Cc1cc2nc(SCCN3CCCC3)[nH]c2cc1C
-17%	Cc1occc1C(=O)Nc1cccc(C(F)(F)F)c1
?	O=C1NC(c2cccc([N+](=O)[O-])c2)=CCN1c1ccccc1O
-30%	CCCC1CC(C)(C(=O)CSc2n[nH]c(-c3ccccc3)n2)OC1=O (stereo unspecified)
-12%	CCOC(=O)C1=C(C)NC(SC)=NC1c1ccc(OC)cc1 (stereo unspecified)
-9%	O=C1CC(N2CCOCC2)C(=O)N1c1ccccc1Cl (stereo unspecified)
-10%	CCOC(=O)c1c(C)[nH]c(C)c1C(=O)COC(=O)/C=C/c1cccc(C(F)(F)F)c1
-1%	COC(=O)CNS(=O)(=O)c1ccc(OC)cc1
?	CCOC(=O)c1c(-c2ccc(C)cc2C)csc1NC(=O)CSc1nnnn1C
-11%	COc1cc(NC(=O)c2ccc3c(=O)n(Cc4ccco4)c(=S)[nH]c3c2)cc(OC)c1OC
-18%	O=C(/C(=N/N=C/c1ccc(O)c(O)c1)c1ccccc1)c1ccccc1
?	CCSc1nc(-c2ccco2)ccc1C#N
-16%	O=C(N/N=C\c1ccccc1)c1sccc1-n1cccc1
-9%	O=C(CN(Cc1ccc2c(c1)OCO2)C(=O)CSc1nc2ccccc2o1)NC1CCCCC1
?	COc1cc(S(C)=O)ccc1-c1nc2ncccc2[nH]1 (stereo unspecified)
-10%	CC1CC1C(=O)OCC(=O)NC(=O)NCc1ccco1 (stereo unspecified)
-2%	COc1ccc(C(=O)Cc2ccccc2)cc1OC
-4%	Cn1c(=O)c2[nH]c(SCc3ccccn3)nc2n(C)c1=S
-21%	COc1ccc(/C=N/NC(=O)c2cccnc2)cc1CSc1nc2ccccc2s1
32µM*	Cc1ccc(NC(=S)c2nc3ccccc3[nH]2)c(C)c1
-12%	Cn1cc(C(CC(=O)O)C(=O)O)c2ccccc21 (stereo unspecified)
-11%	FC(F)C(F)(F)C1=CC(c2ccccc2)=NCCN1
-13%	Cc1nn(C)cc1/C=N/NC(=O)Cn1nccc1C
-5%	COc1ccc(C(=O)c2ccc(N(C)C)cc2)c2ccccc12
-2%	COc1ccc(-c2cc(C(=O)OCC(=O)c3cccc([N+](=O)[O-])c3)c3cc(C)ccc3n2)cc1
-3%	COc1ccc(C2Nc3ccccc3C(=O)N2c2ccccc2)cc1Cn1cc([N+](=O)[O-])cn1 (stereo unspecified)
-19%	Cc1nc(/C=[N+](\[O-])C(C)(C)/C=N/O)n(O)c1C
-11%	CN1CCN(c2cc(N3CCc4ccccc4C3)c(F)cc2[N+](=O)[O-])CC1
-7%	C/C(=C\c1ccccc1)CN1CCN(c2ccccc2)CC1
?	O=C(c1cccc(F)c1)N1CCC2(CC1)CN(c1ncccn1)C2
-13%	C=CCOc1c(Br)cc(/C=N/NC(N)=O)cc1OC
?	CC1CCCN(C(=O)CSc2nnc(-c3ccc(S(=O)(=O)N4CCOCC4)cc3)n2C)C1 (stereo unspecified)

5 entries out of the list above, ordered by their value in HPGD inh, lowest first:
Molecule | HPGD inh
Cc1nc(/C=[N+](\[O-])C(C)(C)/C=N/O)n(O)c1C | -19%
C=CCOc1c(Br)cc(/C=N/NC(N)=O)cc1OC | -13%
CN1CCN(c2cc(N3CCc4ccccc4C3)c(F)cc2[N+](=O)[O-])CC1 | -11%
COc1ccc(C2Nc3ccccc3C(=O)N2c2ccccc2)cc1Cn1cc([N+](=O)[O-])cn1 (stereo unspecified) | -3%
COc1ccc(-c2cc(C(=O)OCC(=O)c3cccc([N+](=O)[O-])c3)c3cc(C)ccc3n2)cc1 | -2%

More entries follow:
HPGD inh	SMILES
-14%	Cc1cc(C)c2nc(N3CCCC(C(=O)N4CCN(c5ncccn5)CC4)C3)sc2c1 (stereo unspecified)
-9%	CCOC(=O)CNC(=O)c1ccccc1
-3%	Cc1ccc(S(=O)(=O)CCc2nc3ccccc3n2CCC#N)cc1
-12%	Fc1ccc(-n2c(Cc3ccccc3)nnc2SCc2nc(-c3ccc(Cl)cc3)no2)cc1
-4%	O=C(NCCc1ccccn1)C1CC(=O)N(Cc2ccccc2Cl)C1 (stereo unspecified)
-18%	O=C(CC1SC(=Nc2ccccc2)N(CCc2c[nH]c3ccccc23)C1=O)Nc1ccccc1F (stereo unspecified)
-3%	CCC(C)(C)NC(=O)CN(C(=O)c1snc(C(N)=O)c1N)c1ccc2c(c1)OCO2
-14%	O=C(NCc1ccc(F)cc1)c1noc2c1CCCC2
-8%	O=C(CCN1CCN(c2ccccc2)CC1)Nc1nccs1
-8%	CCOC(=O)c1c(C)nc2sccn12
-3%	Cc1cc(NC(=O)c2ccc(Cl)cc2)no1
?	CCCCC[C@H](O)/C=C/[C@@H]1[C@@H](C/C=C\CCCC(=O)O)[C@@H](O)C[C@H]1O
-9%	COc1ccc(Br)cc1CN1CCCCCCC1
-2%	O=C(CNc1ccccc1)N/N=C/c1ccc([N+](=O)[O-])cc1
-8%	CCS(=O)(=O)N1CCN(c2c(Cl)cccc2[N+](=O)[O-])CC1
?	CCOc1ccc(-c2cc(C(=O)N3CCN(C)CC3)c3ccccc3n2)cc1

Ordered by heavy-atom count (rising): 3 of the compounds above.
HPGD inh	SMILES
-3%	Cc1cc(NC(=O)c2ccc(Cl)cc2)no1
-2%	O=C(CNc1ccccc1)N/N=C/c1ccc([N+](=O)[O-])cc1
?	CCCCC[C@H](O)/C=C/[C@@H]1[C@@H](C/C=C\CCCC(=O)O)[C@@H](O)C[C@H]1O

(more compounds)
HPGD inh	SMILES
-6%	Cc1noc(C)c1C(=O)N1CCC2(CCN(Cc3ccccc3)CC2)CC1
-13%	FC(F)(F)c1ccc(C2[C@H]3CN(Cc4cccnc4)[C@H](c4ccccc4)C34CC2(c2ccccc2)C4)cc1 (stereo partly specified)
?	O=C(NCCN1CCOCC1)c1c[nH]c2ccc(S(=O)(=O)N3CCOCC3)cc2c1=O
-5%	CC(Sc1ccc(Cl)cc1)C(=O)Nc1ccccc1C(=O)N1CCOCC1 (stereo unspecified)
-9%	CCc1ccc(NC(=O)CS(=O)CC(=O)NC(C)CCc2ccco2)cc1 (stereo unspecified)
-6%	CCOC(=O)CNC(=S)N(Cc1ccc(C)cc1)Cc1ccc(C)o1
?	COc1ccc(/C=N/NC(=O)c2nc(Cl)c(Cl)c(N)c2Cl)cc1COc1ccccc1F
7%	COc1ccc(N2C(=O)CC(N3CCN(c4ccc(S(=O)(=O)N5CCCC5)cc4)CC3)C2=O)cc1 (stereo unspecified)

HPGD inh: hit marks shown above
HPGD inh	SMILES
16µM*	O=C(CSc1nc2ccccc2c(=O)[nH]1)c1ccc(O)c(O)c1
13µM*	CN1CCN(C(=O)c2ccc(N3CCCC3=O)cc2)CC1
32µM*	Cc1ccc(NC(=S)c2nc3ccccc3[nH]2)c(C)c1

(continued)
HPGD inh	SMILES
-2%	O=C(O)c1ccccc1NS(=O)(=O)c1ccc(Cl)c(Cl)c1
-9%	CCCCn1c(SCC(=O)c2ccc(OCC)cc2)nc2cc(S(N)(=O)=O)ccc21
-5%	CC1(C)CCC[C@@](C)([C@H]2CC[C@]3(C)[C@@H]2[C@H](O)C[C@@H]2[C@@]4(C)CC[C@H](O)C(C)(C)[C@@H]4[C@@H](O)C[C@]23C)O1
-6%	CCCn1c(=O)n(C)c(=O)c2c(SCC(=O)NC34CC5CC(CC(C5)C3)C4)nc(CC(C)C)nc21
-12%	C/C(=C/CCC(C)[C@H]1CC[C@@]2(C)C3=C(CC[C@]12C)[C@@]1(C)CCC(=O)C(C)(C)[C@@H]1CC3)C(=O)O (stereo partly specified)
-8%	Cc1ccc(CNC(=O)C2CCCN(Cc3cnn(-c4ccccc4)c3-n3cccc3)C2)cc1 (stereo unspecified)
-13%	CCc1nc(OCC(=O)c2ccccc2)c(C#N)c2c1COC(C)(C)C2
?	CCOc1ccccc1-n1c(SCC(=O)Nc2ccc(CC)cc2)nc2n[nH]c(C)c2c1=N
-1%	[N-]=[N+]=CC(=O)COC(=O)c1ccccc1
-7%	CCCCCCCC(=O)Nc1ccc(C(=O)N/N=C/c2cccc([N+](=O)[O-])c2)cc1
-3%	CC(=O)OCc1c(C(F)(F)F)nn(C)c1Sc1ccccc1
-14%	CCC(CC)C(=O)Nc1c2c(nn1-c1ccc(OC)cc1)CS(=O)(=O)C2
-23%	Cc1ccc(CSC2=Nc3sccc3C3=NC(=O)CN23)cc1
-12%	COc1ccc(C(=O)OCC(=O)c2cc(OC)ccc2OC)c(OC)c1
-13%	C=C(C)COc1ccc(-c2n[nH]c(C)c2-c2ccccc2OC)c(O)c1
-6%	CCOC(=O)N1CCC(Nc2c(NCCN3CCN(c4cccc(Cl)c4)CC3)c(=O)c2=O)CC1
-4%	Cc1c(NC(=O)c2c(F)cccc2F)c(=O)n(-c2ccccc2)n1C
-16%	COc1ccccc1CN(Cc1nc2ccccc2c(=O)[nH]1)C(=O)Nc1ccc(C)cc1
?	O=c1c(O)c(-c2ccc(O)c(O)c2)oc2cc(O)ccc12
25µM*	CS/C(=N\S(=O)(=O)c1cccs1)NC(=O)CSc1nc2ccccc2s1
-8%	CCOC(=O)c1c(C)[nH]c(C)c1C(=O)CSc1nc(N)cc(=O)[nH]1
6%	Cc1cc(C)cc(N)c1
-16%	COc1ccccc1N1CCN(c2ccc(-c3ccccc3)nn2)CC1
-11%	O=C(c1cc2sccc2n1Cc1ccccc1)N1CCCc2ccccc21
-12%	CN1C(=O)C2(OCC(COc3ccc(Cl)cc3)O2)c2ccccc21 (stereo unspecified)
-5%	O=S(=O)(NCc1ccco1)N1CCCCCC1
-3%	COc1ccc(S(=O)(=O)Nc2ccc(N3CCOCC3)cc2)cc1Br
-26%	Cc1ccc2nc(-c3ccc(N4C(=O)CC(N5CCCC(C)C5)C4=O)cc3)sc2c1 (stereo unspecified)
-4%	Cc1cccc(N2CCN(CCNC(=O)c3cc4c(s3)CS(=O)(=O)C4)CC2)c1C
-21%	Cc1ccc2[nH]c(=O)c(CN(C)C(=O)c3ccccn3)cc2c1
4µM*	Cc1nn(-c2ccccc2)c2sc(C(=O)N3CCCCC3)cc12
-12%	Cc1cc(NC(c2cccnc2)c2ccc3cccnc3c2O)no1 (stereo unspecified)
-12%	O=C(CCCCCN1C(=O)c2ccccc2C1=O)Nc1ccc2c(c1)OCCO2
-16%	COc1cc(NC(=O)CN2CCCCC2C)c(C)cc1[N+](=O)[O-] (stereo unspecified)
-27%	COc1ccc(C/C(O)=C(\C#N)c2nc3ccccc3s2)cc1
-11%	Cc1cccc(OCC(=O)Nc2ccc(S(=O)(=O)N3CCCC3)cc2)c1
